Screening results as filed in PubChem BioAssay.
gsp agonist – qHTS for Agonist of gsp, the Etiologic Mutation Responsible for Fibrous Dysplasia/McCune-Albright Syndrome: qHTS | hit rate 0.13% among 340,000 | gsp mutant cells, cAMP HTRF, 30 min; control for the full effect not named in the record | Potency, µM (series often up to 76.9 µM), inactives show at the highest dose activation (cAMP increase), usual class: activators; active = well fitted activation curve with a large enough effect; inconclusive = small, poorly fitted or top-dose-only effect, or another doubt; inactive = no such curve, though single readings can be large or run the other way; cell line not stated here;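 note: phosphodiesterase inhibitor Ro 20-1724 added with compounds to block cAMP breakdown; potency is the fitted concentration of half-maximal effect; nearly all actives have a fitted effect of over 60% in size; about a fifth of the inactives were tested at one dose only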
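Cells in DMEM/10% FBS with G418 were pretreated with compounds in DMSO plus […] (300 uM stock) for 30 min at 37C. cAMP was measured by HTRF (cAMP-d2 plus anti-cAMP antibody-K) after 30 min at room temperature.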
TRPV1 PAM – HTS Assay for Compounds that Act as Potentiators of the Vanilloid Receptor 1. potentiation, % at 8.33 µM. Transient receptor potential cation channel subfamily V member 1 (Homo sapiens), Q8NER1. TRPV1-expressing cells, Fluo-8 calcium influx, capsaicin EC20 potentiation; host cell line not named in the record; control for the full effect not named in the record. hit rate 0.02% among 320,000; active means potentiation above 80%; inconclusive means 30% to 80%; inactive means below 30%; note: 0% is about no effect
Target sequence (Q8NER1 whole entry, looked up): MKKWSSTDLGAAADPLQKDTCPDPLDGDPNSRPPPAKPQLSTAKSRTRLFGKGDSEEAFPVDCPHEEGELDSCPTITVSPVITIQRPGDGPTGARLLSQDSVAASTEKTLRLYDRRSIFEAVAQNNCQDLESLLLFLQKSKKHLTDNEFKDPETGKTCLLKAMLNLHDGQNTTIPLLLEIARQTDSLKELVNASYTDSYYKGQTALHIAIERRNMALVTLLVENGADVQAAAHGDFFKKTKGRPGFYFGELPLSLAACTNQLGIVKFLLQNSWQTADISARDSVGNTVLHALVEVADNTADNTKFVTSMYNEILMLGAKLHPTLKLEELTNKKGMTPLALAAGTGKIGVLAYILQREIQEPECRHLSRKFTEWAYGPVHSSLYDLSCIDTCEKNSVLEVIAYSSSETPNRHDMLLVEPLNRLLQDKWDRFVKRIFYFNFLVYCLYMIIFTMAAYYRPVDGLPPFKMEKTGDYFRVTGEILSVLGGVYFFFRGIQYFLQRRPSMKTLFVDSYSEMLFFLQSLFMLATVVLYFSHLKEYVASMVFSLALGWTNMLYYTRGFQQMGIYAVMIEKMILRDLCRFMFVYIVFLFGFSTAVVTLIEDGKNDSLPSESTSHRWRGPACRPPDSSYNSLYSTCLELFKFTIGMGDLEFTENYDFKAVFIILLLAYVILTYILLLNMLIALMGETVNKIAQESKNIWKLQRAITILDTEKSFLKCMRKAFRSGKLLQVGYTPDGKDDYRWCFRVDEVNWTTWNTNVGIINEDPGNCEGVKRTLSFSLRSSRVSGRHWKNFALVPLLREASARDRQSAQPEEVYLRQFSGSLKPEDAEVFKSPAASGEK
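TRPV1-expressing cells were cultured overnight at 35.5C and loaded with Fluo-8 calcium dye for 40 to 90 min at room temperature. After a 10 s baseline, compound was added and calcium influx was read kinetically for 3 min (ex 480/em 520 nm).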
ClpP mod – qHTS Assay for Activators of ClpP. ATP-dependent Clp protease proteolytic subunit (Bacillus subtilis (strain 168)), P80244. purified B. subtilis ClpP, FRET peptide cleavage, 20 min. Potency, µM (highest dose often 57.5 µM), without a hit: at the highest dose activity change, negative = active. hit rate 1.9% among 340,000. AID 651965, 2013; active = well fitted falling curve with a large enough effect; inconclusive = small, poorly fitted or top-dose-only effect; inactive = no such curve, though single readings can be large or run the other way; note: potency is the fitted concentration of half-maximal effect; the source files actives as falling curves though it sought activators and does not explain the sign; nearly all actives have a fitted effect of over 65% in size; many hits overshoot -100%
Target sequence (P80244 whole entry, looked up): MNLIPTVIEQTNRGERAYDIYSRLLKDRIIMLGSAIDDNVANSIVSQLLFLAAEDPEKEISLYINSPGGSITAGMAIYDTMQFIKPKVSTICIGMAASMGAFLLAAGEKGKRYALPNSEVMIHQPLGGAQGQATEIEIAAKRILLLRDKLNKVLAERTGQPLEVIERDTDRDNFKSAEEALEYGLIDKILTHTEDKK
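Buffer: 100 mM Tris/HCl pH8, 100 mM KCl, 0.05% low protease BSA, 2.5% glycerol, 0.01% Tween-20. ClpP 10 microg/mL final; 20 min RT; delta FRET normalized to ADEP and DMSO controls.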
gsp antag – qHTS for Antagonists of gsp, the Etiologic Mutation Responsible for Fibrous Dysplasia/McCune-Albright Syndrome: qHTS; gsp-mutant cells, cAMP HTRF, 30 min; control for the full effect not named in the record; Potency, µM (highest dose often 76.9 µM), without a hit: top-dose activity change, negative = inhibition, most hits filed as inhibitors; hit rate 0.4% among 340,000; AID 624288, 2012; active = falling curve of any shape with a large fitted effect; inconclusive = falling curve, mostly with a smaller effect; inactive = flat or rising curve; cell line not stated here;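 note: intracellular cAMP measured with PDE inhibitor Ro 20-1724 present during compound exposure; potency is the fitted concentration of half-maximal effect; % is set by controls: 0 for no effect and ±100 for the full control effect; nearly all actives have a fitted effect of over 65% in size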
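Measurement of cellular cAMP by homogeneous time-resolved fluorescence following a 30 min compound exposure at 37C. The PDE inhibitor […] was present throughout; the assay buffer was DPBS with 0.05% BSA and 0.005% Tween 20.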
Sfp inh – qHTS Assay for Inhibitors of Bacillus subtilis Sfp phosphopantetheinyl transferase (PPTase). 4'-phosphopantetheinyl transferase ffp (Bacillus subtilis), Q9F4F7. Biochemical Sfp PPTase activity, qHTS. Potency, µM, without a hit: max response, negative = inhibition, usual class: inhibitors. hit rate 3.5% among 310,000. AID 1490, 2009; active = well fitted inhibition curve with a large enough effect; inconclusive = small, poorly fitted or top-dose-only effect, or another doubt; inactive = no such curve, though single readings can be large or run the other way;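 note: the enzyme is Sfp with the accession as filed and its product quenches rhodamine fluorescence; potency is the fitted concentration of half-maximal effect; 0% = enzyme reaction without inhibitor and -100% = no enzyme wells; top concentration of the series not given in the record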
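Step 1, compound plus 15 nM Sfp-PPTase, 15 min, room temperature. Step 2, add rhodamine-CoA (5 uM) and BHQ-2-YbbR (12.5 uM). Step 3, read 525/598 nm fluorescence at 0 and 30 min.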
D2 potentiator – Beta-Arrestin HTS for Positive Allosteric Modulators of the Human D2 Dopamine Receptor: Potentiators; D(2) dopamine receptor (Homo sapiens), P14416; DiscoveRx D2 beta-arrestin cells, luminescence, 90 min; 100% = 57 uM dopamine signal; potentiation, % (no concentration beside the values); hit rate 0.23% among 360,000; active = potentiation of 50% or more; inconclusive = 30% to 50%; inactive = 30% or less;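 note: compound concentration not given in the record; tested on top of an EC20 dose of dopamine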
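D2 cells co-treated with compound plus 50 nM dopamine (EC20) for 90 min at 37 deg C to detect potentiation. Beta-arrestin recruitment was read as enzyme-fragment luminescence after 1 h at ambient temperature. Full response was set by 57 uM dopamine.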
Menin-MLL FL inh – qHTS Assay for Inhibitors Targeting the Menin-MLL Interaction in MLL Related Leukemias: Competition With Fluorescein Labeled MLL-derived Peptide; Fluorescence polarization, fluorescein-MLL peptide displacement from menin; FP activity change, % at 61.4 µM; 290,000 tested, under 10 active; inconclusive = falling polarisation curve, or a change in total fluorescence; inactive = total fluorescence flat and polarisation flat or rising; no compound was filed as active; the % refers to the polarisation; negative = inhibition;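 note: % of control where 0% means no effect; inhibitors lower the polarisation; unlabelled MLL peptide was the positive control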
* hit, by the source's call; ? = inconclusive; nt = no result given; & = joins results of further samples; [ ] = remark or other dose.

SMILES	gsp agonist	TRPV1 PAM	ClpP mod	gsp antag	Sfp inh	D2 potentiator	Menin-MLL FL inh
C=CCN(c1ccccc1)S(=O)(=O)c1cccc(C(=O)O)c1	-19%	0	1.0%	-16%	9%	-24	-0.8
O=C(Cn1nnc2ccccc2c1=O)NC1CCCc2ccccc21 (stereo not given)	-5%	-7	-1.1%	2%	-9%	2	1.9
Cc1cc(SCC(=O)NCCCN2CCCC2=O)nc2ccccc12	35%	-4	-4.6%	18%	nt	-1	nt
Cn1cccc1C(=O)NS(=O)(=O)c1ccccc1Cl	3%	-8	1.1%	3%	-5%	-6	3.0
Oc1ccc(-c2nc3ncccn3c2Nc2ccc3c(c2)OCCO3)cc1	-6%	3	-1.5%	?	3%	-11	2.8
COC(=O)[C@@]1(Cc2ccc(OC)cc2)[C@H]2c3cc(C(=O)N(C)C)n(Cc4ccc(OC(F)(F)F)cc4)c3C[C@H]2CN1C(=O)c1ccccc1	0%	5	-0.2%	-8%	7%&25%	-7	3.5&0.3
CN(c1ccc(C(=O)NCc2ccncc2)cc1)S(C)(=O)=O	4%	6	-6.9%	6%	-6%	2	3.3
Nc1nnc(SCC(=O)c2cccc([N+](=O)[O-])c2)s1	3%[15.4 µM]	-2	-0.4%	3%	-17%	3	4.7
COCC(C)n1c(C)cc(C(=O)CSc2nnc(Nc3ccccc3F)s2)c1C (stereo not given)	-14%	9	0.1%	?	9%	3	-6.0
CC(=O)c1c(C(C)=O)c(C)n(-c2ccc3ncccc3c2)c1C	-12%[15.4 µM]	2	nt	10%	7%	-3	1.0
C=C[C@H]1C(O[C@@H]2O[C@H](CO)[C@@H](O)[C@H](O)[C@H]2O)OC=C2C(=O)N3CCc4cc(OC)c(O)cc4[C@H]3C[C@H]21 (stereo not given in full)	nt	nt	0.7%	3%	nt	-27	nt
O=C(CNc1ccc(F)cc1)N/N=C1\CCc2ccccc21	12%[15.4 µM]	-11	nt	nt	13%	-27	-1.2
COc1cccc(-c2ccc3nnc(SCC(=O)N4CCOCC4)n3n2)c1	21%	-1	-5.6%	-1%	nt	-31	nt
Cc1ccc2c(COC(=O)c3ccc(C)c(C)c3)cc(=O)oc2c1	-1%	26	nt	2%	8%	-3	-0.3
O=C(NCCc1ccc(F)cc1)c1ccc2c(=O)n3c(nc2c1)CCC3	-24%	-5	-4.9%	0%	nt	-21	nt
N#CCCOC1(C#CCN2CCCC2)CCCCC1	5%	-1	-0.7%	6%	23%	-7	0.5
CCCCC(=O)Nc1ncc(S(=O)(=O)c2ccc([N+](=O)[O-])cc2)s1	9%	-7	-2.5%	7%	-2%	-8	-0.2
CN(C)c1ccc(/C=C/c2c([N+](=O)[O-])c(=O)n(C)c(=O)n2C)cc1	?	-7	-13%	-14%	8%	-9	1.6
COc1ccc(NC(=O)c2ccccc2NC(=O)COc2ccccc2)cc1	-19%	-8	-2.2%	10%	2%	-12	0.4
COc1ccc(NC(=O)c2ccccc2NC(=O)CSc2ccc(Cl)cc2)cc1	20%	-20	1.2%	8%	6%	4	-0.3
CC1(C)O[C@@H](CC(=O)O)[C@]23CO[C@H](C(=O)[C@]4(C)C2CC[C@@]2(C)[C@H](c5ccoc5)OC(=O)C5O[C@]524)[C@@H]13 (stereo not given in full)	nt	nt	-0.4%	11%	nt	-5	nt
COc1ccc(N2C(=O)CC(Nc3ccc(C(=O)O)cc3)C2=O)cc1OC (stereo not given)	-7%	0	1.8%	17%	13%	-8	1.2
O=C(Nc1ccccc1Cl)C1CCCN(c2ncnc3c2nc2n3CCCCC2)C1 (stereo not given)	?	-28	nt	-25%	-11%	?	-0.5
COc1ccc(S(=O)(=O)NCCc2ccco2)cc1OC	-37%[inhibitor]	-4	0.7%	11%	3%	-1	1.2
COc1ccccc1C(=O)NCC(=O)OCc1ccc(Br)cc1	-2%	12	0.4%	-10%	23%	-20	1.5

Next part, overlapping the part above by 3 compounds.
SMILES	gsp agonist	TRPV1 PAM	ClpP mod	gsp antag	Sfp inh	D2 potentiator	Menin-MLL FL inh
O=C(Nc1ccccc1Cl)C1CCCN(c2ncnc3c2nc2n3CCCCC2)C1 (stereo not given)	?	-28	nt	-25%	-11%	?	-0.5
COc1ccc(S(=O)(=O)NCCc2ccco2)cc1OC	-37%[inhibitor]	-4	0.7%	11%	3%	-1	1.2
COc1ccccc1C(=O)NCC(=O)OCc1ccc(Br)cc1	-2%	12	0.4%	-10%	23%	-20	1.5
COc1ccc(OCC(=O)N/N=C/C=C/c2ccccc2)cc1	26%	4	nt	-9%	7%	6	2.2
COc1ccc2sc(-c3ccccc3OC)c(C#CCCO)c2c1	nt	-3	-8.0%	-6%	nt	-8	nt
COc1ccc(NC(=O)Nc2ccncc2)c(OC)c1	16%[15.4 µM]	-10	nt	nt	4%	-21	-1.7
Cc1ccc(N(Cc2ccccc2)C(=O)c2cc(S(=O)(=O)N3CCOCC3)ccc2F)cc1	-11%	-12	0.7%	-24%	nt	-26	nt
CN(C)c1ccc(CNC(=O)c2cc(S(=O)(=O)N3CCOCC3)cn2C)cc1	-6%	-15	-1.8%	4%	27%	-3	-0.3
Cc1noc(C)c1COc1ccccc1C(=O)NC(C)c1ccc(F)cc1 (stereo not given)	2%	nt	-25%	0%	nt	-17	nt
O=C(NCC(c1cccs1)N1CCOCC1)c1ccco1 (stereo not given)	16%	1	-2.9%	-5%	?	-11	-0.2
O=C1C=C(c2ccc(OC(F)(F)F)cc2)C[C@@H](c2ccc(F)cc2)C1	11%	-19	1.1%	4%	nt	-13	nt
Cc1cccc(N(Cc2nnc3n2CCCCC3)C(=O)Nc2ccccc2)c1	-21%	2	-1.9%	5%	4%	-10	2.6
COc1cccc(/C=N/n2c(-c3ccco3)nc3ccccc3c2=O)c1	0%	-12	-3.0%	0%	-5%	7	3.1
O=C(c1ccc(F)cc1)N1CCN(S(=O)(=O)c2ccc3c(c2)OCCO3)CC1	-13%	nt	-3.2%	nt	nt	-17	nt
CN(CC(=O)Nc1cccnc1)S(=O)(=O)c1cc(Cl)ccc1Cl	-16%	3	-0.3%	4%	11%	2	-6.2
Cn1cc(CCCC(=O)NCc2ccc(F)cc2)c2ccccc21	13%[15.4 µM]	-2	-0.7%&-17%	-16%	11%	-10	-5.5
COc1ccc(C2CC(C(F)(F)F)n3ncc(C(=O)Nc4cccc(O)c4)c3N2)cc1OC (stereo not given)	-7%	4	0.2%	12%	-9%	9	0.4
COc1cccc(NC(=S)NC2CC3CCCC(C2)N3CC(C)C)c1 (stereo not given)	?	-4	1.0%	8%	-6%	-11	-6.6
CN(Cc1cccc2cnccc12)C(=O)c1cc(COc2ccc(F)cc2F)on1	-11%	13	-0.3%	-30%	-6%	-9	4.5
Cc1ccc(C(C(=O)NC2CCCCC2)N(C(=O)Cc2c[nH]c3ccccc23)c2ccccc2)o1 (stereo not given)	-39%[inhibitor]	nt	4.7%	2%	1%	-6	1.7
O=[n+]1cc(-c2ccc(Cl)cc2)n([O-])c2c1CCC2	-10%[15.4 µM]	9	-6.5%	7%	10%	9	-1.1
CCC(NC(=S)NC1CCCCC1)c1ccc(C(C)C)cc1 (stereo not given)	nt	-3	nt	nt	14%	nt	-1.2
CCCC1(c2ccccc2)NC(=O)N(CC(=O)Nc2sc(-c3ccccc3)cc2C(=O)OCC)C1=O (stereo not given)	-93%[inhibitor]	-20	-4.9%	19%	21%	-11	4.2
Cc1ccc2nc3c(c(Nc4ccc(O)cc4)c2c1)CCC3	1%	4	0.6%	-2%	-8%	8	3.4
COc1ccc(Br)cc1S(=O)(=O)NCCc1cccs1	-2%	nt	-0.3%	-8%	nt	-1	nt
CCN(CC)S(=O)(=O)c1cccc(C(=O)Oc2cccc(NC(=O)c3cccs3)c2)c1	7%	-4	-10%	-15%	9%	-13	2.2
CC(=O)N(Cc1cccnc1)Cc1cc2ccc(C)cc2[nH]c1=O	19%	17	?	8%	10%	-8	2.8
Cc1cc(Br)ccc1NC(=O)CN(C)C(=O)CSCc1ccccc1	-12%[15.4 µM]	-8	-3.4%	-2%	nt	-35	nt
Next results
SMILES	gsp agonist	TRPV1 PAM	ClpP mod	gsp antag	Sfp inh	D2 potentiator	Menin-MLL FL inh
Cc1ccc2cc(CN(CCO)Cc3nnnn3Cc3ccc(F)cc3)c(=O)[nH]c2c1	-64%[inhibitor]	9	-22%	-4%	-2%	-6	1.1
O=C(/C(=C/O)N=Nc1ccccc1)c1ccc(Cl)cc1	2%[15.4 µM]	1	nt	-26%	-13%	-12	-0.1
Cc1ccc(OCc2cc(C(=O)N(C)Cc3cnn(C)c3)no2)cc1C	2%	nt	0.2%	nt	nt	-9	nt
CN(C)c1nc(NS(=O)(=O)c2ccc(Cl)cc2)nc(N(C)C)n1	13%	-5	-2.2%	5%	4%	-13	3.3
CC(C)COc1cccc(C(=O)N(CC(=O)Nc2ccccc2C(F)(F)F)Cc2ccco2)c1	?	0	1.4%	-11%	nt	0	nt
CCOC(=O)c1ccc(NC(=O)c2sc3nc(N4CCOCC4)c4c(c3c2N)CCCC4)cc1	18µM*	-5	3.9%	-2%	-15%	-8	nt
O=C(Cn1c(=O)n(CC2CCCO2)c(=O)c2ccccc21)c1ccc(Cl)c(Cl)c1 (stereo not given)	8%	4	-7.5%	12%	6%	-4	6.7
